Cruzain noTriton = inhibitors of Trypanosoma cruzi cruzain without detergent. P25779. purified cruzain, Z-FR-AMC fluorescence, no detergent. Potency, µM, for inactives: max response, negative = inhibition, most hits filed as inhibitors. 2.3% of 200,000 active. AID 1476; active means well fitted curve in the direction sought with a large enough effect; inconclusive means small, poorly fitted or top-dose-only effect, or another doubt; inactive means no such curve, though single readings can be large; an effect the other way counts as inactive or inconclusive;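 further: plate controls were enzyme without inhibitor for no effect and buffer without enzyme for full effect; nearly all actives have a fitted effect of over 40% in size; top concentration of the series not given in the record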
Target sequence (P25779 123-467 limits assumed): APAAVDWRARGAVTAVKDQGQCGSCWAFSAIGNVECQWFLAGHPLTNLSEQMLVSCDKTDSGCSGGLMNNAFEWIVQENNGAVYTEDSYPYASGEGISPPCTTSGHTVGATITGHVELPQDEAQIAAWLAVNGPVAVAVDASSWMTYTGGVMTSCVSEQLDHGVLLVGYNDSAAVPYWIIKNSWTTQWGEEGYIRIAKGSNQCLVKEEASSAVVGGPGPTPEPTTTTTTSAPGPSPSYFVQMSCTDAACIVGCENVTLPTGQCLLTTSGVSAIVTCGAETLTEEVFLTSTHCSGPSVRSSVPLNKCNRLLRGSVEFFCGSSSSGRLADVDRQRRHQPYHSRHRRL
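Detergent-free condition (0.00005% Triton X-100) in acetate buffer pH 5.5 with DTT. 1.5 nM enzyme and compound were pre-mixed 15 min, then 2 uM Z-FR-AMC substrate added; reaction progress from fluorescence change between first and third reads (60 s).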
SARS PLpro yeast = blocks SARS-CoV papain-like protease in a yeast assay. Potency, µM (series often up to 32.9 µM), for the others: top-dose activity, positive = growth rescue. S. cerevisiae expressing SARS-CoV PLpro, growth rescue; control for the full effect not named in the record. 0.19% of 330,000 active; further: 0% is about no effect; nearly all actives have a fitted effect of over 55% in size; growth read by luminescence after 48 h
NS1 inh = influenza NS1 inhibition; S. cerevisiae slowed by influenza A NS1, growth recovery by OD600; 0.4% of 270,000 active; Potency, µM (top dose mostly 46.1 µM), for inactives: at the highest dose activity, positive = more growth; AID 2326; further: actives are rising curves; nearly all actives have a fitted effect of over 50% in size
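Growth recovery, yeast-based: influenza A NS1 expressed in S. cerevisiae causes slow growth, and suppressors are detected by OD600. The parent strain without NS1 is used as positive control.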
StopGo reporter = FMDV 2A StopGo reporter, luciferase signal | 1.2% of 410,000 active | AID 1159524 | human cells with a luciferase reporter of 2A StopGo recoding; control for the full effect not named in the record | Potency, µM (doses to about 57.9 µM), without a hit: top-dose signal change, negative = less light; active = well fitted falling curve with a large enough effect; inconclusive = small, poorly fitted or top-dose-only effect; inactive = no such curve, though single readings can be large or run the other way; tested in HEK293T cells; further: on the % scale 0 is the no-effect control and ±100 the full control effect; nearly all actives have a fitted effect of over 45% in size; luciferase light after 4 h
Cruzain inh Det = inhibitors of Trypanosoma cruzi cruzain with detergent | 0.43% of 200,000 active | Potency, µM, for the others: max response, negative = inhibition, usual class: inhibitors | purified cruzain, Z-FR-AMC fluorescence, 0.01% Triton | AID 1478 | P25779; active means well fitted curve in the direction sought with a large enough effect; inconclusive means small, poorly fitted or top-dose-only effect, or another doubt; inactive means no such curve, though single readings can be large; an effect the other way counts as inactive or inconclusive;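 further: plate controls were neutral wells for no effect and buffer without enzyme for full effect; nearly all actives have a fitted effect of over 40% in size; top concentration of the series not given in the record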
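In this qHTS format, compounds are incubated with 1.5 nM cruzain for 15 min at room temperature before 2 uM Z-FR-AMC is added. Release of AMC is followed at 360/450 nm, and progress is taken as the 60 s fluorescence difference.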
RE007 growth inh = less growth of the S. pombe RE007 Vpr strain | 0.21% of 360,000 active | Potency, µM (titrated, usually from 92.2 µM), for inactives: at the top dose activity change, negative = less growth | S. pombe RE007 Vpr strain, BacTiter-Glo ATP luminescence, 24 h; control for the full effect not named in the record; active = well fitted falling curve with a large enough effect; inconclusive = small, poorly fitted or top-dose-only effect; inactive = no such curve, though single readings can be large or run the other way;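 further: on the % scale 0 is the no-effect control and ±100 the full control effect; nearly all actives have a fitted effect of over 50% in size; the assay follows cell death caused by Vpr and the record does not say whether a fall means rescue or toxicity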
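Fission yeast RE007 carrying one integrated HIV-1 vpr copy, seeded at OD 0.01 in PMG+AL medium with 23 nL pinned compound. Grown 24 h at 30 degrees; viability read by BacTiter-Glo luminescence after 5 min.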
Lassa entry inh = Lassa virus entry inhibition; AID 540256; Lassa virus pseudotype entry inhibition, cell reporter; control for the full effect not named in the record; Potency, µM (titrated, usually from 37.9 µM), inactives show at the highest dose activity change, negative = inhibition, most hits filed as inhibitors; 1.2% of 300,000 active; active means well fitted inhibition curve with a large enough effect; inconclusive means small, poorly fitted or top-dose-only effect, or effect the other way; inactive means flat fitted curve, though single readings scatter; tested in HEK293 cells; further: on the % scale 0 is the no-effect control and ±100 the full control effect; nearly all actives have a fitted effect of over 50% in size; luciferase read-out
MARV entry inh = Marburg virus entry inhibition | Marburg virus pseudotyped entry inhibition, cell reporter; control for the full effect not named in the record; about a third of the inactives were read at about 46 µM | Potency, µM (highest dose often 37.8 µM), for inactives: at the top dose activity change, negative = inhibition, actives largely listed as inhibitors | 1.8% of 300,000 active | AID 540276; active = well fitted inhibition curve with a large enough effect; inconclusive = small, poorly fitted or top-dose-only effect, or effect the other way; inactive = flat fitted curve, though single readings scatter; tested in HEK293 cells; about a fifth of its hits are not listed in these tables; further: on the % scale 0 is the no-effect control and ±100 the full control effect; luciferase read-out
Numbers without * were called inactive; u = inconclusive; x = no result given; & = joins results of further samples; [ ] = dose if it differs, or a comment. Unless noted, the call rests on the fitted dose curve; in most records, active means well fitted rising curve with a large enough effect; inconclusive means small, poorly fitted or top-dose-only effect; inactive means no such curve, though single readings can be large or run the other way. Potency means the concentration at half of the fitted maximal effect.

SMILES	Cruzain noTriton	SARS PLpro yeast	NS1 inh	StopGo reporter	Cruzain inh Det	RE007 growth inh	Lassa entry inh	MARV entry inh
COCCCNC(=S)N/N=C/c1ccccc1O	x	0.8%	0.8%	55.3%[activator]	x	-10.4%	x	x
COc1ccc(/C(C)=N\NS(C)(=O)=O)c(OC)c1	-4.3%	14.1%	u	-4.0%	-1.0%	-11.8%	10.5%	-1.0%
CC1CCN(c2cc(N)c(Cl)cc2[N+](=O)[O-])CC1	1.4%	-20.1%	-63.0%	30.5%[activator]	-12.4%	u	u	-15.6%
COCCN(C(=O)CCC(=O)Nc1ccccn1)C(C(=O)NCCC(C)C)c1ccc(C)cc1 (stereo not given)	x	-1.2%	-1.7%	-5.3%	x	0.2%	x	-17.7%[46.1 µM]
O=C(NC1CC(=O)N(c2ccc(F)cc2)C1)C(=O)c1c[nH]c2ccccc12 (stereo not given)	x	-2.7%	x	0.8%	x	-13.4%	u	23.4%
O=[N+]([O-])c1ccc(C2CCCC/C2=N/OCc2ccc(F)cc2)c([N+](=O)[O-])c1 (stereo not given)	-11.3%	-6.7%	-2.8%	-20.8%	0.1%	14.5%[3.69 µM]	-8.0%	u
CCN1CCN(c2c(Cl)cccc2NC(=O)c2ccc3c(c2)OCCO3)CC1	-0.9%	-1.1%	-23.8%	-19.3%	-5.7%	-10.9%	-0.9%	4.4%&-25.8%
O=C(Nc1ccc(S(=O)(=O)NCc2ccco2)cc1)c1ccncc1	4.0%	0.5%	1.0%	-7.6%	12.1%	-3.7%	-3.5%	-28.1%
CCC1CCCCN1C(=O)CSc1n[nH]c(-c2ccccc2Cl)n1 (stereo not given)	12.2%	x	x	-1.8%	2.4%	x	-13.3%[46.1 µM]	x
NC1=NN=C(N2N=C(c3ccccc3)CC2(O)C(F)(F)F)n2ncnc2C1 (stereo not given)	x	-0.3%	3.3%	0.0%	x	-1.2%	x	x
CSc1nc(NS(=O)(=O)c2cc(C)c(Cl)cc2Cl)nn1C	x	7.3%	5.9%	-2.3%	x	-3.1%	0.0%[46.1 µM]	9.6%[46.1 µM]
c1csc(CN2CCNCC2)c1	x	-2.8%	x	-8.2%	x	21.2%	u	-0.6%&-0.6%
COC(=O)[C@@H](Cc1ccc(O)cc1)NC(=O)[C@H]1CCC(=O)N1C(=O)OCc1ccccc1	x	10.6%	-0.7%	-9.2%	x	11.4%	x	x
Cc1ccc2c(C)c(C(=O)N3CCN(c4ncccn4)CC3)oc2c1C	x	-8.7%	-62.7%	u	x	-1.0%	-18.0%	-29.1%
O=C(CCn1nnc2ccccc21)NNC(=O)C1CCCCC1	x	2.3%	x	-18.3%	x	-13.0%	8.3%	23.4%[46.1 µM]
Cc1cc(Sc2nc(NC(C)C)nc(NC(C)C)n2)nc(Cl)n1	x	0.7%	x	2.4%	x	12.4%	-3.2%	3.4%[46.1 µM]
Cc1ccc[n+](CC(=O)N2CCCCC2)c1C	x	-1.1%	-1.0%	8.0%	x	-4.4%	11.0%	15.5%
CC(=O)c1cccc(-n2c(=O)c3c4c(sc3n(CC(=O)Nc3ccccc3F)c2=O)CN(C(C)=O)CC4)c1	u	x	x	-13.2%	-0.7%	x	x	1.2%[46.1 µM]
CCC1Sc2ccccc2N(CC(=O)NCc2ccc3c(c2)OCO3)C1=O (stereo not given)	-4.1%	-0.7%	-8.1%	x	-2.0%	4.8%	0.4%	0.7%
O=C(OCC(=O)N1CCN(S(=O)(=O)c2ccc(Cl)cc2)CC1)c1ccc([N+](=O)[O-])o1	x	-1.0%	x	1.9%	x	-9.3%	5.8%	28.3%[46.1 µM]
O=C(Cc1ccc([N+](=O)[O-])cc1)NCC1CCCO1 (stereo not given)	x	0.5%	-0.8%	-13.7%	x	6.6%	x	x
CCCC(=O)Nc1nnc(-c2ccco2)s1	10.1%	-4.2%	-19.4%	29.3%	0.7%	7.8%	18.0%	u
Nn1cc(-c2ccccc2)nc1SCC(=O)Nc1cccc(S(N)(=O)=O)c1	x	3.5%	4.8%	-3.1%	x	-6.7%	-4.7%	14.0%[46.1 µM]
O=C(c1ccccc1)c1ccc2nc(N3CCN(C(=O)c4ccco4)CC3)c3nncn3c2c1	23.7%	-1.3%	-32.4%	u	-10.0%	-1.1%	x	7.9%
Cc1ccc(Nc2nc(-c3sc(N)nc3C)cs2)cc1	x	-5.9%	4.5%	22.7%	x	3.6%	x	x
(list continues)
SMILES	Cruzain noTriton	SARS PLpro yeast	NS1 inh	StopGo reporter	Cruzain inh Det	RE007 growth inh	Lassa entry inh	MARV entry inh
CCOP(=O)(OCC)C(NC(=O)C(C)C)C(Cl)(Cl)Cl (stereo not given)	1.5%	-4.4%	6.6%	-6.3%	10.1%	1.7%	9.1%	0.7%
CN(C)/C=C1/Sc2ccccc2C1=O	3.2%	-11.8%	-153.0%	47.0%[activator]	-5.9%	-2.6%	18.9%	4.3%
COc1ccc(Br)cc1C(=O)Nc1cccc2ncccc12	x	-0.7%	-2.8%	-0.7%	x	-20.0%	17.4%	u
O=C1NC(c2ccccc2)CCC1(Cl)Cl (stereo not given)	-6.7%	-12.9%	14.5%	-2.6%	-0.4%	7.8%	u	2.3%
CN(C)/C=C1\C(=O)N(c2ccc(Cl)c(Cl)c2)CS1(=O)=O	x	2.8%	x	35.6%[activator]	x	14.6%	7.3%	19.3%[46.1 µM]
COc1ccccc1CNc1ccc(N2CCOCC2)c(C(=O)O)c1	1.9%	8.3%	5.9%	6.1%	-5.1%	1.4%[3.69 µM]	9.1%	1.1%
O=C1NC(=O)/C(=C\c2ccc(OCc3cnc(Cl)s3)cc2)S1	x	0.1%	-6.1%	45.1%[activator]	x	6.1%	-7.7%	6.6%[46.1 µM]
CC(C)(C)n1nnnc1C(c1cccs1)N(Cc1ccccc1)Cc1ccco1 (stereo not given)	-7.8%	-11.3%	-7.0%	u	-7.9%	-4.7%	u	u
Cc1cccc(CN2CCc3c(OCC(=O)N4CCCc5ccccc54)cccc3C2=O)c1	-4.0%	-14.0%	16.6%	u	-4.3%	7.6%	4.47µM*	u
O=C(NNc1c(Cl)cncc1Cl)c1sccc1Cl	x	0.9%	-2.1%	7.5%	x	-2.8%	5.9%[46.1 µM]	-3.5%[46.1 µM]
CCOC(=O)C1CCCN(C(=O)c2cc(-c3ccc(C)cc3)on2)C1 (stereo not given)	5.1%	5.8%	-73.2%	x	-1.2%	8.1%	u	-28.2%
COc1ccc(OC)c(NC(=O)[C@H](CSCc2ccccc2)N2Cc3ccccc3C2=O)c1	9.8%	x	x	-1.1%	-0.1%	x	u	u
Cc1ccc2nc(-c3ccc(N)cc3)sc2c1	x	-2.1%	-3.5%	8.91µM*	x	-3.3%	u	3.55µM*
Cc1cccc(C)c1OCC(O)CNS(=O)(=O)c1ccccc1C(=O)N1CCCCC1 (stereo not given)	u	21.5%	-7.8%	u	-3.5%	13.3%	-11.6%	u
COc1cc(OC)cc(C(=O)Nc2ccc(S(=O)(=O)Nc3cc(C)on3)cc2)c1	-4.8%	-4.2%	16.9%	-1.8%	-5.7%	-4.5%	-0.6%	0.2%
Cc1cccc(C(C(=O)NCc2ccc(F)cc2)N(C(=O)c2csnn2)C2CC2)c1 (stereo not given)	x	2.3%	-10.5%	-1.6%	x	4.0%	1.3%	-23.2%[46.1 µM]
CCCOc1ccc(C(=O)Nc2ccc(N3CCN(C(=O)c4ccco4)CC3)cc2)cc1	x	u	1.5%	-22.4%	x	0.1%	-25.4%	u
O=C(Cn1nc(-c2ccccc2)ccc1=O)N1CCCCC1	x	2.2%	-0.6%	-0.6%	x	27.1%	-19.4%[46.1 µM]	7.0%[46.1 µM]
Cc1cc(OCC(=O)N2CCC(O)(c3ccc(Cl)cc3)CC2)c2c(C)cc(=O)oc2c1	x	11.6%	2.7%	-7.5%	x	-13.4%	x	x
Cc1cc(C)nc(NC(=O)C(c2ccccc2)c2ccccc2)n1	3.3%	10.6%	4.9%	x	-1.3%	1.3%	11.8%	-17.9%
Cc1ccc(N(CC(=O)NC2CCCC2)C(=O)Cn2nnc(-c3ccccc3F)n2)cc1	x	-1.7%	5.3%	9.2%	x	-7.7%	u	u
COc1cc(S(=O)(=O)NCC2(N3CCCCC3)CCCCC2)ccc1NC(C)=O	x	1.4%	x	-11.5%	x	-20.3%	-0.6%	u
O=C(Nc1ccccc1C(=O)Nc1ccccc1)c1cccs1	x	-3.2%	8.8%	3.4%	x	-3.8%	2.8%[46.1 µM]	u
CC(=O)Nc1ccc(NC(=O)CN(c2cccc([N+](=O)[O-])c2)S(C)(=O)=O)cc1	x	0.1%	7.3%	-16.6%	x	3.9%	x	x
Cc1c(OC(C)C(=O)N[C@H](C(=O)O)c2ccccc2)ccc2c3c(c(=O)oc12)CCCC3 (stereo not given in full)	x	-3.5%	10µM*	u	x	10.6%	x	x
Other results:
SMILES	Cruzain noTriton	SARS PLpro yeast	NS1 inh	StopGo reporter	Cruzain inh Det	RE007 growth inh	Lassa entry inh	MARV entry inh
O=C(Cn1cnc2ccccc2c1=O)Nc1ccc(S(=O)(=O)N2CCCC2)cc1	x	0.1%	-1.9%	-11.5%	x	-14.2%	-16.2%	-22.0%[46.1 µM]
CCOc1cccc(NC(=O)c2cnccc2C(F)(F)F)c1	x	0.2%	6.3%	-10.3%	x	2.5%	-8.8%	-19.4%[14.2 µM]
CCOc1ccccc1CN1CCN(Cc2cn(C)nc2-c2ccccc2)CC1CCO (stereo not given)	x	0.0%	6.3%	-10.7%	x	5.9%	17.5%[46.1 µM]	u
O=C(COc1ccc([N+](=O)[O-])cc1)Nc1ccc(N2CCCC2)cc1	7.94µM*	12.4%	8.8%	-24.4%	1.2%	1.8%	-5.6%	22.2%
COc1ccc(OC)c(-c2nnc3n(Cc4ccc(C)cc4)c(=O)c4ccccc4n23)c1	-12.3%	x	x	u	-2.0%	x	0.9%[46.1 µM]	-8.8%[46.1 µM]
O=C1N/C(=C/c2cccn2-c2ccccc2)C(=O)N1Cc1ccccc1F	-4.1%	9.1%	-0.1%	-30.3%	-4.5%	15.9%	24.8%	12.9%
COc1ccc(S(=O)(=O)Nc2ccc3c(c2)OCO3)cc1Cl	15.8µM*	-4.9%	-19.3%	49.6%[activator]	-1.8%	-14.8%	4.7%	15.7%

Compound activity: PubChem BioAssay, National Center for Advancing Translational Sciences (NCATS)
